# Vaccinia Venus: qHTS for Stage-Specific Inhibitors of Vaccinia Orthopoxvirus: Venus Reporter Primary qHTS. Vaccinia virus Venus reporter expression, fluorescence. Potency, µM (highest dose often 36.5 µM), for inactives: at the highest dose activity change, negative = inhibition, actives largely listed as inhibitors. 0.46% of 330,000 active. AID 720580, 2013; active means well fitted inhibition curve with a large enough effect; inconclusive means small, poorly fitted or top-dose-only effect; inactive means no such curve, though single readings can be large or run the other way; tested in A549 cells; also: nearly all actives have a fitted effect of over 30% in size; inactives centre near -10
# Vaccinia mCherry: qHTS for Stage-Specific Inhibitors of Vaccinia Orthopoxvirus: mCherry Reporter Primary qHTS. Vaccinia virus mCherry reporter infection, fluorescence; about a quarter of the inactives have no number. Potency, µM (doses to about 36.5 µM), for the others: at the top dose activity change, negative = inhibition, most hits filed as inhibitors. 0.63% of 310,000 active; active = well fitted inhibition curve with a large enough effect; inconclusive = small, poorly fitted or top-dose-only effect; inactive = no such curve, though single readings can be large or run the other way; tested in A549 cells; also: nearly all actives have a fitted effect of over 35% in size; inactives centre near -10
# Starred values were filed as active, the others as inactive; i = inactive; ? = inconclusive; · = not tested or not shown; & = joins results of further samples; [ ] = dose if it differs, or a comment. % is scaled to controls: 0 for no effect and ±100 for the full control effect; potency is read from the fitted curve at half-maximal effect.
SMILES,Vaccinia Venus,Vaccinia mCherry
CCOc1ccc(N2CC(O)=C(c3ccccc3)C2=N)cc1,-3%,-9%
C=C(C)c1cccc(C(C)(C)NC(=O)N2CCN(c3ccccn3)CC2)c1,-19%,-9%
COc1ccc(C(=O)NCC(=O)N2CCCC(C)C2)cc1OC (stereo not drawn),-16%,-12%
COc1ccc(C2=C(N)c3ccccc3C2=O)cc1,-9%,-23%
C/C(=N/Nc1ccc([N+](=O)[O-])cc1)c1ccc(C)cc1C,-23%,?
CCOC(=O)[C@]12CCC=C1N(Cc1cccc3ccccc13)C(=O)[C@H](CC(=O)NCCC(C)C)C2,-16%,-9%
Cc1cccc(CNC(=O)c2cc(S(=O)(=O)N3CCOCC3)cn2C)c1,-17%,-10%
CNc1ncnc2c1ncn2[C@H]1CN(Cc2ccco2)C[C@@H](CO)O1,-10%,i
C/C(=N/NC(=O)CN1CCN(S(=O)(=O)c2ccc(C)cc2)CC1)c1ccco1,-9%,-16%
Cc1ccc(S(=O)(=O)N2CCN(C(=O)Cc3ccc4c(c3)OCCO4)CC2)cc1C,-6%,-5%
Cc1cccc2sc(NC(=O)CN3C(=O)C4CC=CCC4C3=O)nc12 (stereo not drawn),-2%,-11%
CC1=C(C(=O)OCc2ccc3c(c2)OCO3)C(c2cccc([N+](=O)[O-])c2)NC(=O)N1 (stereo not drawn),-20%,?
O=c1cc2c(n[nH]1)CCCC2,-10%,·
Cc1cc(F)ccc1S(=O)(=O)Nc1ccccc1C(=O)Nc1ccc2[nH]c(=O)[nH]c2c1,-6%,·
COc1ccc(N(CC(=O)Nc2cc(Cl)ccc2OC)S(=O)(=O)c2c(C)[nH]c(=O)[nH]c2=O)cc1,-6%,-4%
CCc1nnc(NS(=O)(=O)c2ccc(NC(=S)NC(=O)c3cccnc3)cc2)s1,7%,6%
Fc1ccc(-n2c(-c3cc(C4CC4)[nH]n3)n[nH]c2=S)cc1Cl,6%[7.34 µM],i[7.34 µM]
CCOC(=O)c1c(NC(=O)c2nc(SCC)ncc2Cl)sc(C(C)=O)c1C,-6%,-15%
O=C(NCCCn1ccnc1)/C(=C\c1ccc(Br)cc1)NC(=O)c1ccccc1F,-22%,i
Cc1cc(C)c(S(=O)(=O)n2cc(C(C)C(N)C(=O)O)c3ccccc32)c(C)c1 (stereo not drawn),-14%,-23%
Cc1cc(NC(=O)CSc2nc3cc(Cl)ccc3s2)no1,1%,-10%
C[C@H](C[C@H](O)[C@H]1OC1(C)C)C1=C2C[C@H](O)C3[C@@]4(C)CCC(=O)C(C)(C)C4CC[C@]3(C)[C@@]2(C)CC1 (stereo partly drawn),?,-7%
Cc1[nH]nc(Sc2ccccn2)c1[N+](=O)[O-],-1%,-4%
C=CCNC(=O)c1ccc(OC)cc1OC,-11%,-18%
COc1ccc(S(=O)(=O)N2CC(=O)Nc3ccccc32)cc1Cl,0%,-11%
Cc1c(N=C(N)/N=C(\N)Nc2ccc(Br)cc2)c(=O)n(-c2ccccc2)n1C,-10%,i
Cc1cc(C)nc(NS(=O)(=O)c2ccc(NC(=O)C3(c4ccccc4)CCCC3)cc2)n1,-14%,i
COc1ccc(C(=O)N2CCCCC2c2cc(C(=O)Nc3ccccc3)no2)cc1 (stereo not drawn),?,i
O=C1NC[C@@H](CCCCN2C[C@H](Cc3ccc(O)cc3)N(Cc3ccccc3)C(=O)C2=O)N(CC2CCCCC2)C1=O,9%,6%
CN(C)C(CNC(=O)c1cc(S(=O)(=O)N(C)c2ccccc2)ccc1Cl)c1ccccc1 (stereo not drawn),-15%,-19%
O=C(O)c1ccc(-c2sc(Nc3ccccc3)n[n+]2-c2ccccc2)cc1,-14%,i
COc1cccc(NC(=O)Cn2c(=O)n(Cc3ccccc3)c(=O)c3c2c2cc(C)ccc2n3C)c1,-6%,11%
C/C(=N\OC(=O)c1ccc(C)cc1)c1c(C)nc2cc(C)ccn12,-1%,i
Cc1ccccc1CS(=O)(=O)c1cn(CC(=O)N2CCC(C)CC2)c2ccccc12,-2%,i
COc1ccc(CC2(CO)CCN(Cc3nc(C(C)C)cs3)CC2)cc1,-4%,-12%
CCOc1ccc(C2NC(=O)c3ccccc3O2)cc1 (stereo not drawn),-7%,-16%
CC1CCCCC12NC(=O)N(CC(=O)OCc1ccccc1Cl)C2=O (stereo not drawn),-20%,-10%
COc1cc(OC)cc(-c2c(C#Cc3ccsc3)c3cc(-c4ccc(OC)c(OC)c4)ccc3n2C)c1,-6%,-13%
C/C(Cn1cnc([N+](=O)[O-])n1)=N\NC(=O)c1ccccc1F,-5%,-12%
CC1CC(C)(C)CC(=O)C1C(=O)c1ccccc1 (stereo not drawn),-5%,-28%
CC(C)(C)CC(=O)O/N=C(\N)c1ccccn1,-3%,-2%
CC(C)CCNC(=O)C1CCN(Cc2cccc(OCc3ccccc3)c2)CC1,?,-2%
O=C(Nc1cc2c(cc1Cl)OCCCO2)c1ccc(F)cc1,-13%,-4%
CC(=O)c1ccc(N2CCN(C(=O)c3c(-c4ccccc4Cl)noc3C)CC2)cc1,-4%,-13%
Cc1csc2c(N3CCN(C(=O)Nc4ccc(Cl)c(Cl)c4)CC3)ncnc12,-26%,-3%
CCNC(=O)C1CCCN(C(=O)c2ccc(OC)cc2OC)CC1 (stereo not drawn),-3%,11%
O=C(O)CCNC(=O)CCCn1nnc2ccccc2c1=O,-12%,-13%
CCOC(=O)c1cc2nc(OCC)nc(OCC)c2[nH]1,-14%,i
CN(C)c1nc(C(=O)Nc2ccccc2)nc(N(C)C)n1,-6%,-12%
O=C(Nc1ccncc1)c1ccc(NS(=O)(=O)c2cccc(F)c2)cc1,-14%,-18%
Cc1c(C(=O)OCc2ccccc2)[nH]c2c1C(=O)CC(c1ccc(C(C)(C)C)cc1)C2 (stereo not drawn),-17%,-4%
CC1(C)CCC2=C(O1)c1ccccc1C(=O)C2=O,?,?
O=C1CCc2cc(S(=O)(=O)N3CCC(C(=O)NC4CCCc5ccccc54)CC3)ccc2N1 (stereo not drawn),0%,1%
CCc1ccccc1NC(=O)N1CCCC(CCC(=O)N(C)CCc2ccccn2)C1 (stereo not drawn),-4%,-21%
O=C1N/C(=N/O)S/C1=C/c1cccc([N+](=O)[O-])c1,-2%,i
O=P1(c2ccccc2)C=Cn2c1cc1c2CCCC1 (stereo not drawn),-12%,-12%
CCCCCCN1N=C(C)C(C(=O)c2ccc(Cl)cc2)C1=O (stereo not drawn),-17%,-25%
CCCCNC(=O)c1nc(-c2ccc(C(F)(F)F)cc2)oc1-c1ccccc1,-4%,-9%
COc1ccc(Nc2cccc(Cl)c2)c(C(=O)O)c1,-5%,-13%
Cc1c(NC(=O)C(C)Sc2ncnc3ccccc23)c(=O)n(-c2ccccc2)n1C (stereo not drawn),3%,-26%
# Following part
SMILES,Vaccinia Venus,Vaccinia mCherry
COc1cc(C2CC(=O)Oc3c2c(=O)n(C)c2ccccc32)ccc1O (stereo not drawn),-8%&-27%,-1%&-28%
O=C(N/N=C(\c1ccccc1)c1ccccn1)c1ccccc1Cl,?,2.5µM*
CC1(C(=O)NCc2ccccc2)CN(S(C)(=O)=O)CC(=O)N1Cc1cccc(F)c1 (stereo not drawn),-11%,-19%
O=C(NCc1ccccc1Cl)C1CCCN(C(=O)Nc2ccc(F)cc2)C1 (stereo not drawn),-4%,11%
CCN1CCN(S(=O)(=O)c2ccc(OC)cc2)CC1,-11%,-17%
O=C(CN1C(=O)NC2(CCCCCC2)C1=O)c1ccc2c(c1)OCCO2,1%,-6%
Cc1ccccc1C(=O)NC(NCC1CCCO1)C(Cl)(Cl)Cl (stereo not drawn),-10%,-26%[1.46 µM]
O=C(Nc1c(F)c(F)c(F)c(F)c1F)C1CCCCC1,-1%,·
NS(=O)(=O)c1ccc(CNC(=O)c2ccc(Br)o2)cc1,?,-21%
CC1(C)CC(=O)C(C2(O)C(=O)Nc3ccccc32)CO1 (stereo not drawn),-3%,-28%
CN(C)c1ccc(CNC(=O)c2ccc3nc(Cc4ccccc4)oc3c2)cc1,-11%,-21%
NC(=O)N/C=C1\CCCOC1=O,-3%,-15%
CCC(C)(C)n1nnnc1C(c1cc(OC)ccc1OC)N1CCN(Cc2ccccc2)CC1 (stereo not drawn),-6%,-1%
CCCNC(=O)N1[C@H](c2ccc(C)s2)[C@@H](C)C(=O)[C@@H](C)[C@@H]1c1ccc(C)s1,-15%,-8%
O=C(/C=C/c1ccccc1)c1ccc2c(c1)OCCCCO2,?,?
O=C(CC1SC(=NCC2CCCO2)NC1=O)Nc1cccc2ccccc12 (stereo not drawn),-11%,?
O=C(CNC(=O)c1cccs1)NCC(=O)OCc1c(F)cccc1Cl,-1%,2%
COc1ccc(C(=O)/C=C/Nc2ccc([N+](=O)[O-])cc2)cc1,-11%,i
COc1ccc(CN(CCC(C)C)S(=O)(=O)c2ccccc2Br)c(OC)c1,-6%,i
CCc1nc(-c2ccccc2)c2ccccn12,-6%,i
CCCc1nc2c(s1)CCc1onc(-c3ccc(Cl)cc3)c1-2,-5%,i
COc1ccc(C2(c3ccc(O)cc3O)CC(c3ccccc3Cl)NC(=S)N2)cc1 (stereo not drawn),-6%,-18%
Cc1ccc(C(=O)Nc2c(N)nc(SCC(=O)Nc3cc(C)on3)[nH]c2=O)cc1,-9%,-3%
CCCn1c(=O)c(C(=O)NCC2CCCO2)c(O)c2ccccc21 (stereo not drawn),-9%,-12%
CCOC(=O)C1CCCCN1Cc1cn(C)nc1-c1ccccc1F (stereo not drawn),-3%,-6%
Cc1cc(C)n(CCc2nc(-c3cc4ccccc4o3)cs2)n1,0%,-14%
CCn1c(SCC(=O)c2cc(OC)ccc2OC)nnc1C1CC1,-10%,i
CN(C)S(=O)(=O)c1ccc(-c2csc(N/N=C/c3ccco3)n2)cc1,-18%,?
CCOc1ccc(NC(=O)c2ccc3c(c2)C(=O)N(Cc2ccncc2)C3=O)cc1,-9%,-11%
CCC(C)(C)C1CCc2[nH]nc(C(=O)NCc3ccccn3)c2C1 (stereo not drawn),?,-20%

# Random excerpt: 2 records from the list, in no set order.
SMILES,Vaccinia Venus,Vaccinia mCherry
Cc1ccc(C(=O)Nc2c(N)nc(SCC(=O)Nc3cc(C)on3)[nH]c2=O)cc1,-9%,-3%
CCC(C)(C)C1CCc2[nH]nc(C(=O)NCc3ccccn3)c2C1 (stereo not drawn),?,-20%

# Sorted by length of the SMILES (descending): 14 of the compounds above.
SMILES,Vaccinia Venus,Vaccinia mCherry
CCCNC(=O)N1[C@H](c2ccc(C)s2)[C@@H](C)C(=O)[C@@H](C)[C@@H]1c1ccc(C)s1,-15%,-8%
Cc1ccc(C(=O)Nc2c(N)nc(SCC(=O)Nc3cc(C)on3)[nH]c2=O)cc1,-9%,-3%
CCOc1ccc(NC(=O)c2ccc3c(c2)C(=O)N(Cc2ccncc2)C3=O)cc1,-9%,-11%
COc1ccc(C2(c3ccc(O)cc3O)CC(c3ccccc3Cl)NC(=S)N2)cc1 (stereo not drawn),-6%,-18%
CN(C)S(=O)(=O)c1ccc(-c2csc(N/N=C/c3ccco3)n2)cc1,-18%,?
COc1ccc(CN(CCC(C)C)S(=O)(=O)c2ccccc2Br)c(OC)c1,-6%,i
COc1ccc(C(=O)/C=C/Nc2ccc([N+](=O)[O-])cc2)cc1,-11%,i
O=C(CC1SC(=NCC2CCCO2)NC1=O)Nc1cccc2ccccc12 (stereo not drawn),-11%,?
O=C(CNC(=O)c1cccs1)NCC(=O)OCc1c(F)cccc1Cl,-1%,2%
CCCn1c(=O)c(C(=O)NCC2CCCO2)c(O)c2ccccc21 (stereo not drawn),-9%,-12%
CCCc1nc2c(s1)CCc1onc(-c3ccc(Cl)cc3)c1-2,-5%,i
Cc1cc(C)n(CCc2nc(-c3cc4ccccc4o3)cs2)n1,0%,-14%
CCOC(=O)C1CCCCN1Cc1cn(C)nc1-c1ccccc1F (stereo not drawn),-3%,-6%
CCc1nc(-c2ccccc2)c2ccccn12,-6%,i

# The listing continues.
SMILES,Vaccinia Venus,Vaccinia mCherry
COc1ccc(C)cc1C1=Nc2ccccc2C1(C)C,-13%,i
O=S(=O)(/N=C(/c1ccccc1)N1CCCCCC1)c1ccccc1,-15%,i
COc1ccc(/C=C/C2=NN(C)C(=O)CC2)cc1,-4%,-10%
COc1cccc(N2CCN(C3CC(=O)N(c4ccc(Cl)cc4)C3=O)CC2)c1 (stereo not drawn),-3%,·
CC(C)n1c(SCC(=O)NC2CC2)nnc1C1CC1,2%,-15%
O=[N+]([O-])c1ccc2c(c1)-c1ccccc1C2O (stereo not drawn),-13%,-13%
CCN(CC)c1ccc(NC(=O)c2ccccn2)cc1S(=O)(=O)Nc1ccccc1OC,-11%,-8%
O=C(COC(=O)C1CC1)NC(=O)c1ccccc1,-9%,-13%
O=C(COc1ccc(Br)cc1)NCCCNC(=O)c1cccnc1,-7%,-10%
COc1ccc(C)cc1NC(=O)c1cc2c(=O)n3ccccc3nc2n1C,2%,3%
O=C(CCC1CCCCC1)NCCN1C2=NC[C@H](Cc3ccccc3)N2C[C@H]1Cc1ccc(O)cc1,-29%,?
CCOC(=O)C1=C(C)NC(SCC(N)=O)=C(C#N)C1c1ccccc1 (stereo not drawn),-11%,-5%
CC(=O)NCCNC(=O)C1Cc2c(-c3ccc(Cl)cc3)ccnc2O1 (stereo not drawn),-9%,6%
Cc1ccc(Cl)cc1Nc1nn2c(=O)c3ccc(C(=O)NCc4cccs4)cc3nc2s1,?,?
Cc1ccc(NC(=O)Cn2c(C)cc(C)c(C#N)c2=O)cc1,-6%,3%
COc1ccc(OC)c(C2C(C(=O)c3ccc(C)o3)=C(O)C(=O)N2CCCN2CCOCC2)c1 (stereo not drawn),2%,-11%
CCOc1cc(/C=C2/C(=N)N3OC(C)=CC3=NC2=O)ccc1OC,1%,i
N#Cc1ccccc1Sc1ccccc1C(=O)OCC(=O)NC1CCCCC1,-6%,-10%
